Screening data (PubChem)
PINK1 expr mod = PINK1 expression modulation; 410,000 compounds, 0.2% hits; PINK1 immunofluorescence, high-content cytometry, 24 h; AID 624263; Potency, µM (top dose mostly 76.6 µM), for the others: at the top dose activation (PINK1 increase), most hits filed as activators; active = well fitted activation curve with a large enough effect; inconclusive = small, poorly fitted or top-dose-only effect; inactive = flat fitted curve, though single readings scatter; cell line not stated here;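 note: potency is the fitted concentration of half-maximal effect; % of control where 0% means no effect; nearly all actives have a fitted effect of over 65% in size; a mitochondrial uncoupler was the plate control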
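Measures PINK1 amount and localization on or inside mitochondria by immunofluorescence. Stable cells get compounds at 5 concentrations for 24 hours before fixation and staining; CCCP controls included.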
TRPML1 blocker = human mucolipin-1 channel inhibition | Q9GZU1 | TRPML1-inducible cells, Ca2+ dye fluorescence, FDSS; stronger effect = lower value; inhibition of EC80 agonist-evoked calcium signal | activity change, negative = inhibition, % (no concentration beside the values) | 390,000 compounds, 0.02% hits | AID 624415; in the data active means activity change below about -50%; inconclusive means about -30% to -50%; inactive means above about -30%;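 note: stimulus is agonist 54-4 at its EC80 concentration; % is set by controls: 0 for no effect and ±100 for the full control effect; compound concentration not given in the record; the text of the record puts the active cut at -80%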
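Calcium fluorescence in TRPML1-DL cells induced overnight with Tet: a 110 s read after compound pin addition, then a 110 s antagonist read after challenge with 54-4 at 4 uM final (EC80).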
Six1-Eya2 blk = blocks human Six1 binding to Eya2; Q15475+O00167; AlphaScreen GST-Six1/His-Eya2 binding, biochemical; stronger effect = lower value; control for the full effect not named in the record; activity change, % (no concentration beside the values); 360,000 compounds, 0.56% hits; AID 651725; in the data active = activity change below about -65%; inconclusive = about -30% to -65%; inactive = above about -30%; note: % is set by controls: 0 for no effect and ±100 for the full control effect
Target sequence (O00167 whole entry, looked up): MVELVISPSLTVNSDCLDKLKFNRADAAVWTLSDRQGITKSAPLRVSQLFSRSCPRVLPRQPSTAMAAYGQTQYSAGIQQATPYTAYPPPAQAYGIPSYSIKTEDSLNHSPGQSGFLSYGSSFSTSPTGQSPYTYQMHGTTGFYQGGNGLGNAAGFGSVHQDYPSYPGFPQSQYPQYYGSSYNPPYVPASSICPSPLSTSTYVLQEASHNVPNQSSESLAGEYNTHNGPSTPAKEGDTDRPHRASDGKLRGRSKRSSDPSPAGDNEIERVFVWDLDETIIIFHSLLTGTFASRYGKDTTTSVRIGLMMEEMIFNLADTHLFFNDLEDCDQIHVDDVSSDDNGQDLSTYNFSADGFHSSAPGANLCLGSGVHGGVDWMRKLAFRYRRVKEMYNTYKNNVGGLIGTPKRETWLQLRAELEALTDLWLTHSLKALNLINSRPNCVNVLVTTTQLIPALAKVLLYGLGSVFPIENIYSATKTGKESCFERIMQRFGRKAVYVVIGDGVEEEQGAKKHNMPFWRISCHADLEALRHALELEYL
Target sequence (Q15475 whole entry, looked up): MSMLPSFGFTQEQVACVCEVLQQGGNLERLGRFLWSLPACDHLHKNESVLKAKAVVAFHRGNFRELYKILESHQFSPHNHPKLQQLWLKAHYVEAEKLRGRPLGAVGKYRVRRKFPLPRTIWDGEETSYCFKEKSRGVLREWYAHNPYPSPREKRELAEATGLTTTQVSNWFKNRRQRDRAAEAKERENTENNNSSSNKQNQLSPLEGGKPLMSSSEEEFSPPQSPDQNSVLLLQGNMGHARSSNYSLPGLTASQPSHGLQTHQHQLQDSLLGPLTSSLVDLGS
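GST-Six1 + His-Eya2 (5X stock: 250/500 nM); Tris pH 8.0, 300 mM NaCl, 0.05% BSA, 0.02% Tween 20; GSH donor/Ni acceptor beads; 1 h 37 °C dark; AlphaScreen readout.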
CtBP-E1A blk = blocks the CtBP interaction with E1A; AlphaScreen GST-E1A/His-CtBP binding, 1536-well; stronger effect = lower value; control for the full effect not named in the record; activity change, % (no concentration beside the values); 340,000 compounds, 0.49% hits; AID 651724; in the data active means activity change below about -65%; inconclusive means about -30% to -65%; inactive means above about -30%; note: % is set by controls: 0 for no effect and ±100 for the full control effect
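Homogeneous bead-based format: GST-tagged E1A captured on glutathione donor beads, His-tagged CtBP on nickel acceptor beads; compounds precede bead addition by 2 h at 37 °C.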
D2 ag = human D2 receptor agonism in beta-arrestin assay; P14416; DiscoveRx PathHunter D2 beta-arrestin, luminescence, 90 min; 100% = 57 uM dopamine signal; 360,000 compounds, 0.084% hits; activation, % (no concentration beside the values); in the data active = activation above about 40%; inconclusive = about 15% to 40%; inactive = below about 15%; note: compound concentration not given in the record; the text of the record calls up to 30% inactive
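Agonist mode: compounds alone added to overnight-plated D2 PathHunter cells for 90 min at 37 C, with 57 uM final dopamine (EC100) defining full response. Beta-arrestin recruitment detected by chemiluminescent reagent, read after 1 h at ambient temperature.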
TRPML1 ag = agonists of human TRPML1 channel; TRPML1-expressing cells, Ca2+ dye fluorescence, FDSS; host cell line not named in the record; reference of the full effect not given here; activation, % (no concentration beside the values); 410,000 compounds, 0.12% hits; AID 624414; in the data active = activation above about 50%; inconclusive = about 30% to 50%; inactive = below about 30%; note: 0% is about no effect; the text of the record puts the active cut at 80%
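TRPML1-DL cells, Tet-induced overnight (~16 h, 37 degrees C), loaded 45-90 min at room temperature with Ca8 no-wash calcium dye plus quencher. FDSS fluorescence: 10 s baseline, compound pin-transfer, 110 s agonist read, then EC80 54-4 (4uM final) and 110 s antagonist read.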
* hit, by the source's call; ? = inconclusive; / = not tested or not shown; [ ] = dose if it differs, or a comment. No enrichment for hits. Share with any hit: about 1%.

SMILES | PINK1 expr mod | TRPML1 blocker | Six1-Eya2 blk | CtBP-E1A blk | D2 ag | TRPML1 ag
CC1(C(=O)NS(=O)(=O)c2cccc(C#N)c2)CCN1C(=O)Cc1ccc(-c2ccccc2)cc1 (stereo not given) | -0.3% | / | 0.1 | 1.2 | -6.5 | -0.4
CC1CCN(C(=O)COc2cccc3c2CCN(Cc2ccccc2)C3=O)CC1 | 2.3% | 0.1 | -0.6 | 0.0 | -2.0 | 2.0
Cn1cccc1/C=C1/SC(=O)N(CC(=O)N2CCCC2)C1=O | 1.3% | 8.2 | -18.3 | -0.6 | -2.0 | -0.6
O=C(Nc1ccc(F)cc1)c1ccc2c(c1)S(=O)(=O)N=C1CCCCCN12 | 17.3% | -2.0 | 3.1 | 4.8 | -2.9 | 0.2
CCc1ccc(NC(=O)C(=O)NCC(c2ccc3c(c2)OCO3)N2CCOCC2)cc1 (stereo not given) | -1.3% | 4.8 | / | / | / | -0.4
CC1CC(=O)Nc2ccccc2N1S(=O)(=O)c1cccc(Cl)c1 (stereo not given) | 0.6% | 16.9 | -3.2 | -10.5 | -4.2 | -1.1
Cc1ccccc1NC(=O)CN1C(=O)CCn2nc(-c3cccn3C)cc21 | 0.8% | 10.1 | / | / | / | 0.7
CC(=O)Nc1ccc(NC(=O)c2oc3c(c2C)-c2nn(Cc4ccccc4Cl)cc2CC3)cc1 | 7.8% | 0.1 | / | / | / | 1.5
COCC(C)n1c(SCC(=O)Nc2oc(C)c3c(C)n[nH]c(=O)c23)nc2ccccc2c1=O (stereo not given) | -0.6% | 4.9 | 3.2 | -2.3 | -6.6 | 1.3
O=S(=O)(Cc1ccccc1)N1CCN(c2ccccc2)CC1 | -0.9% | -12.6 | -1.5 | 0.0 | -1.5 | -0.7
O=C1CSC(=Nc2ccccc2[N+](=O)[O-])N1 | -0.5% | 37.5 | -7.6 | -0.9 | -9.7 | -0.6
CC1=CC=CC2=NC(=O)CC(C)(C(=O)N(CC(=O)NC3CCCC3)Cc3ccc(Cl)cc3)N12 (stereo not given) | 0.0% | -3.1 | 0.3 | 3.9 | -1.8 | -0.7
COc1ccc(CC(=O)Nc2ccc3c(c2)OC2(CCCC2)O3)c(OC)c1 | 0.7% | -6.9 | -23.9 | -6.7 | 2.5 | 0.7
CCNC(=O)NC(=O)C(C)Sc1ccc2c(c1)OCCO2 (stereo not given) | 1.7% | 18.8 | 8.3 | -1.6 | -4.8 | 0.5
CC(=O)N1CCCC1c1nc2ccccc2n1Cc1cccc(C)c1 (stereo not given) | 1.5% | -17.7 | / | / | / | -0.4
C=CCn1c(SCC(=O)N2CCN(c3ccccc3)CC2)nnc1-c1ccco1 | -2.6% | -3.4 | -1.7 | 2.0 | -2.6 | -1.1
O=C(NC1CC1)C1CCN(C(=O)c2ccc(Cl)cc2)CC1 | 3.0% | -4.5 | 2.7 | 3.1 | -3.8 | 0.6
Cc1cccc(Oc2coc3cc(OC(=O)c4cc5ccccc5oc4=O)ccc3c2=O)c1 | 5.0% | 4.1 | -4.0 | 5.8 | -0.4 | -0.7
COc1ccc(NC(=O)CN2C(=O)NC(C)(C3CC3)C2=O)cc1S(=O)(=O)N1CCOCC1 (stereo not given) | -0.2% | 9.0 | 0.0 | 2.3 | 0.0 | -0.5
COc1ccccc1NC(=O)c1ccc(NC(=O)C2CC2)cc1 | 0.6% | 4.8 | 3.4 | -5.9 | -0.5 | 0.6
Clc1ccc2nc(CN3CCCc4ccccc43)cn2c1 | -0.6%[38.3 µM] | 7.2 | ? | 6.4 | 0.0 | 0.2
CCN(CC)S(=O)(=O)c1ccc(NC(=O)c2ccc(Cl)nc2)cc1 | 10.2% | -6.5 | -12.7 | 3.4 | -2.0 | 0.8
CCc1nnc(NC(=O)C2CC(=O)N(c3ccc4c(c3)OCCO4)C2)s1 (stereo not given) | 3.3% | 23.0 | -13.2 | -11.1 | -2.5 | 1.2
COc1ccc(OC(=O)CCN2C(=O)C3C4C=CC(C4)C3C2=O)cc1 (stereo not given) | 0.3% | 8.3 | 8.1 | -1.4 | 0.3 | 1.8
N/C(=N\OC(=O)c1ccc(=O)n(Cc2ccc(Cl)cc2)c1)c1ccccn1 | -0.4% | 12.0 | -3.1 | / | ? | 0.0
Cc1ccc(NC(=O)N2CCN(Cc3ccc4c(c3)OCO4)CC2)cc1 | -6.0%[38.3 µM] | -7.2 | -8.2 | -22.8 | -2.7 | -0.4
O=C(COc1ccc2c(c1)oc(=O)c1ccccc12)N[C@@H](Cc1ccccc1)C(=O)O | 0.4% | / | -25.8 | -11.4 | -0.1 | /
Cc1ccc(Cn2nnc3c(=O)n(CC(=O)c4ccccc4)cnc32)cc1 | 1.1% | -12.9 | 0.0 | 0.9 | -1.9 | 0.1
C=CCOc1nc2c(c(=O)n(C)c(=O)n2C)n1Cc1ccc(Cl)cc1Cl | 3.4%[38.3 µM] | -5.1 | 4.1 | 2.5 | -3.2 | -0.5
CC1CCN(C(=O)CSc2nc(=O)n3cc(Cl)ccc3n2)CC1 | -0.1% | -3.4 | 1.7 | 0.7 | -1.3 | -0.6
COc1ccc(NS(=O)(=O)c2csc(C(N)=O)c2)cc1 | 2.3% | -8.9 | -2.4 | 8.2 | -4.6 | -0.2
COc1ccc(-c2cnnc(N/N=C/c3ccc(-c4ccc([N+](=O)[O-])cc4)o3)n2)cc1 | 15.1% | 7.2 | 2.2 | 3.8 | -16.2 | 3.4
C/C(=N\N(c1ccccc1)c1ccccc1)c1ccc(O)cc1 | 7.1% | 4.2 | -10.7 | -18.0 | -5.2 | 0.9
Cn1ncc(Br)c1C(=O)N/N=C/c1cccc(OC2CSC2)c1 | -0.7% | -9.6 | -2.5 | -20.6 | -5.0 | 1.0
CCOC(=O)c1nnn(CC(=O)N2N=C(c3ccc(Cl)cc3)CC2c2ccccc2)c1C(=O)OCC (stereo not given) | 6.6% | -10.3 | 1.9 | 11.2 | -2.5 | -0.6
C=CCOc1cccc(C(=O)N2CCCC(Nc3ccc(F)cc3)C2)c1 (stereo not given) | 0.3% | 3.5 | 0.0 | -18.7 | -2.3 | 0.6
CCn1c(SCC(=O)N2CCCCC2C)nnc1-c1ccco1 (stereo not given) | 0.2% | 3.1 | 15.7 | -4.6 | 0.9 | 0.1
NC(=O)CCCn1c(C(=O)c2cc(Cl)c(N)c(Cl)c2)c2ccc(C(F)(F)F)cc2[n+]1[O-] | 1.7% | -6.9 | -10.9 | -3.6 | 5.8 | -0.2
COC(=O)N/N=C(\C)c1ccccc1Br | 0.1% | 8.1 | 3.2 | 4.8 | -1.8 | 0.1
CCOC(=O)CSC1=NC(=O)CS1 | 3.1% | -5.2 | 2.0 | -5.7 | -4.8 | 0.7

Looked up by structure from the entries so far, 4 records:
SMILES | PINK1 expr mod | TRPML1 blocker | Six1-Eya2 blk | CtBP-E1A blk | D2 ag | TRPML1 ag
C/C(=N\N(c1ccccc1)c1ccccc1)c1ccc(O)cc1 | 7.1% | 4.2 | -10.7 | -18.0 | -5.2 | 0.9
COc1ccc(NS(=O)(=O)c2csc(C(N)=O)c2)cc1 | 2.3% | -8.9 | -2.4 | 8.2 | -4.6 | -0.2
CCOC(=O)c1nnn(CC(=O)N2N=C(c3ccc(Cl)cc3)CC2c2ccccc2)c1C(=O)OCC (stereo not given) | 6.6% | -10.3 | 1.9 | 11.2 | -2.5 | -0.6
CCn1c(SCC(=O)N2CCCCC2C)nnc1-c1ccco1 (stereo not given) | 0.2% | 3.1 | 15.7 | -4.6 | 0.9 | 0.1

Next part
SMILES | PINK1 expr mod | TRPML1 blocker | Six1-Eya2 blk | CtBP-E1A blk | D2 ag | TRPML1 ag
O=C(N/N=C/C=C/c1ccco1)c1cnccn1 | -0.7% | -4.8 | -18.9 | -9.7 | 0.8 | 0.1
CC(C)(C)CC(C)(C)NC(=O)c1ccccc1 | 2.4% | -21.0 | 0.0 | 4.1 | 4.3 | 0.0
COc1ccccc1N1CC(C(=O)Nc2ccc3c(c2)OCO3)CC1=O (stereo not given) | -0.3% | 8.2 | -0.4 | / | 7.5 | -0.4
Cc1cc(NS(=O)(=O)c2ccc(OCCNS(C)(=O)=O)cc2)no1 | -1.7%[38.3 µM] | 20.3 | -0.1 | -3.2 | 1.3 | 0.2
NS(=O)(=O)c1ccc(CCNC(=O)C2CCCN2S(=O)(=O)c2cccc3nsnc23)cc1 (stereo not given) | 0.0% | -29.8 | -1.5 | -20.5 | -3.5 | -0.3
C=CCNC(=O)C1(S(=O)(=O)c2ccccc2)CC=CC1 | 0.5% | -5.4 | 6.3 | 0.9 | -3.2 | 0.0
O=C(c1cc(-c2ccc(Cl)c(Cl)c2)on1)N1CCCCC1 | ? | 73.1 | 4.2 | -4.6 | 0.6 | -0.1
COC(=O)c1c(F)c(F)c(NCCO)c(F)c1F | / | 0.5 | 3.9 | 14.2 | -1.3 | 0.3
O=C(NCc1ccc(F)cc1)c1cc(C2CCCCN2C(=O)c2ccccn2)on1 (stereo not given) | 0.4% | / | 2.6 | -6.2 | -5.6 | -0.1
O=C(N/C(=C/c1ccccc1)C(=O)N1CCOCC1)c1ccc([N+](=O)[O-])cc1 | -0.7% | -13.6 | 2.7 | 7.5 | -3.0 | -0.7
O=C(COc1ccc2c(-c3ccccc3)cc(=O)oc2c1)NC(Cc1c[nH]c2ccccc12)C(=O)O (stereo not given) | 1.1% | 6.6 | -23.5 | -16.4 | -2.2 | 0.9
O=[N+]([O-])c1c(NCCO)cc(N2CCC3(CC2)OCCO3)c2nonc12 | 2.8% | 8.8 | 2.6 | 0.0 | -3.7 | -0.2
COc1ccc(NC(=O)COC(=O)c2ncc(Cl)c(Cl)c2Cl)c(OC)c1 | 0.3% | 8.8 | 4.7 | 7.2 | -0.6 | 3.7
CCN(C(=O)Cn1cc(C(=O)C(=O)N2CCOCC2)c2ccccc21)c1ccccc1 | -0.2% | -7.8 | 1.4 | 6.0 | -1.1 | 0.8
COc1cc(C2C(C(=O)Nc3ccc(C)cc3C)=C(C)Nc3nc4ccccc4n32)cc(OC)c1OC (stereo not given) | 0.8% | -11.8 | / | / | / | -0.3
CN=c1sc(C(=O)Nc2ccccc2)c(C)n1C | 2.5% | 5.5 | -0.7 | -3.0 | -5.7 | -1.0
O=C(Cc1ccccc1)Nc1cc([N+](=O)[O-])ccc1N1CCOCC1 | 1.2% | 3.7 | 3.4 | 0.0 | -4.2 | -0.5
Cc1ccc(/C(O)=C2\C(=O)C(=O)N(c3cc(C)on3)C2c2cccc(Br)c2)cc1 (stereo not given) | -2.3% | 4.1 | 12.9 | 13.0 | -2.1 | 1.3
CCOc1ccc(C2C(C(N)=O)=C(C)Nc3nc(SCc4ccccc4F)nn32)cc1 (stereo not given) | 1.1% | -3.8 | / | / | / | 0.4
Cc1ccc(C2CCN(C(=O)Nc3ccc(C)c(C)c3)C2)cc1 (stereo not given) | 0.5% | 22.8 | / | / | / | 1.4
Cc1cccc(C)c1NC(=O)CSCCO | 8.5%[38.3 µM] | -7.8 | 4.7 | 2.4 | -4.5 | -0.3
COc1ccc(COc2ccccc2C(=O)NCc2ccccc2)cc1F | 0.0% | 67.2 | 17.1 | 6.9 | 5.3 | 2.8
